Compound activity as filed in PubChem.
VDR inh = blocks the human vitamin D receptor. VDR-SRC2-3 peptide fluorescence polarization, 2 h. Potency, µM, for the others: max response, negative = inhibition, most hits filed as inhibitors. hit rate 0.93% among 400,000; active means well fitted inhibition curve with a large enough effect; inconclusive means small, poorly fitted or top-dose-only effect, or another doubt; inactive means no such curve, though single readings can be large or run the other way; further: series mostly up to about 120 µM
Target sequence (P11473 whole entry, looked up): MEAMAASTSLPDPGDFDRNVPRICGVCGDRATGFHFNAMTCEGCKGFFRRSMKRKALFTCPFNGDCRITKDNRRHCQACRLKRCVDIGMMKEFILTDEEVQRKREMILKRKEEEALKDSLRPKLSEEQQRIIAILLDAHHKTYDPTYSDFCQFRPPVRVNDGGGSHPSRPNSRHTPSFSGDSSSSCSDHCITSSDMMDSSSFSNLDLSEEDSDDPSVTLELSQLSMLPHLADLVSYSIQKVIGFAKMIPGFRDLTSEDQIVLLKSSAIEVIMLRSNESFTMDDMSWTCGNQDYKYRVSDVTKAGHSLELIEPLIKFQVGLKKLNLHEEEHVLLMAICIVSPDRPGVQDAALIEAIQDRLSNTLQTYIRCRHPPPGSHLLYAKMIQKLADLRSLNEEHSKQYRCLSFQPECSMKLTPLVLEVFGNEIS
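The screen uses fluorescence polarization to detect compounds that interfere with recruitment of the SRC2-3 coactivator peptide to VDR; plates are read after 2 h at room temperature.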
An asterisk follows results filed as active; ? = inconclusive; & = joins results of further samples. On the % scale 0 is the no-effect control and ±100 the full control effect; potency means the concentration at half of the fitted maximal effect.

SMILES	VDR inh
Cc1ccc(-c2csc(NC(=O)CN3CCOCC3)n2)cc1C	0%
Cc1oc(-c2cccc(Cl)c2)nc1CN1CCC(C(=O)NCCCN2CCN(c3ccccc3F)CC2)CC1	-14%
C[C@H](CO)N1C[C@H](C)[C@@H](CN(C)S(C)(=O)=O)Oc2ccc(NS(=O)(=O)c3cn(C)cn3)cc2C1=O	7%
COc1ccc(CCNC(=O)COC(=O)c2cc(OC)c(OC)cc2OC)cc1OC	-15%
O=C(c1cc(-c2cccc(Cl)c2)on1)N1CCc2ccccc2C1	14%
COc1ccc(CNC(=O)C[C@H]2C[C@H](C(=O)N3CCOCC3)[C@@]3(C)c4[nH]c5ccc(Cl)cc5c4CCN3C2=O)cc1OC	-29%
CC(=O)Nc1ccc(-c2csc(NNC(=O)c3ccc(C)cc3)n2)cc1	-22%
Cc1ccc(C(=O)/C=C/N(C)C)o1	-2%
N/C(=N\OC(=O)c1ccc2ccccc2c1)c1ccc(Br)cc1	-4%
CCc1nc(SCc2ccc(Cl)cc2)n[nH]1	-16%
CCOc1ccccc1CNS(=O)(=O)c1csc(C(N)=O)c1	-12%&-3%
Cc1ccc(C(CC(=O)N2CCCCC2)c2ccccc2)c(O)c1C (centres undefined)	11%
COC(=O)C1=C(C)NC(=S)N(C(C)=O)C1c1ccccc1 (centres undefined)	16%
O=C(NCc1ccncc1)C(=O)NCC(c1ccco1)N1CCN(c2ccccc2F)CC1 (centres undefined)	14%
Cc1cc(C)cc(Oc2nc3c(c(=O)n(C)c(=O)n3C)n2Cc2ccc(F)cc2)c1	?
COc1ccccc1CN1CCN(C(=O)c2cccc3ccccc23)CC1	2%
O=S1(=O)NC(=NCCOCCO)c2ccccc21	4%
O=C(NCC1CCN(C(=O)c2ccc([N+](=O)[O-])cc2)CC1)c1ccc([N+](=O)[O-])cc1	-12%
CC1(c2nnc(-c3ccc(Cl)cc3)o2)CC(c2ccc([N+](=O)[O-])cc2)=NO1 (centres undefined)	-1%
COc1ccc(OCC(=O)NNC(=O)c2ccc(-c3ccccc3)cc2)cc1	-13%
CN(C)S(=O)(=O)c1cccc(COC(=O)CCNC(=O)c2ccc([N+](=O)[O-])cc2)c1	0%
O=C(COc1ccccc1Cc1ccccc1)Nc1cccnc1	-4%
CC(C)c1ccc(OCC(=O)N2CCN(C(=O)c3ccco3)CC2)cc1	-13%
COc1ccc(NC(=O)C2OCCc3ccccc32)c(OC)c1 (centres undefined)	8%
O=C(/C=C/c1ccco1)NCc1ccccn1	-11%
Cc1cc(C(=O)N2CCCC(N3CCN(c4cccc(C(F)(F)F)c4)CC3)C2)n[nH]1 (centres undefined)	7%
Cc1cnc(C(=O)OCC(=O)Nc2ccc(Cl)cc2Cl)cn1	2%
CC1CC(C)CN(C(=O)CN2C(=O)NC3(CCCCCCC3)C2=O)C1 (centres undefined)	-21%
CC(C)CNc1nnnc2c1sc1nc(N3CCOCC3)c3c(c12)CC(C)(C)SC3	-9%
CC(C(=O)OCC(=O)Nc1ccc(S(N)(=O)=O)cc1)N1C(=O)c2ccccc2C1=O (centres undefined)	-6%
O=C(CN1CCOCC1)Nc1ccccc1-c1ccccc1	-7%
C=CCc1cccc2cc(C(=O)OCC(=O)c3ccccc3)c(=O)oc12	11%
O=C(COC(=O)C1CC1)Nc1ncc(C(F)(F)F)cc1Cl	3%
COc1cccc(-n2c(N)cc(=O)nc2SCC(=O)N2CCN(c3ccccc3)CC2)c1	5%
C=C(C)c1cccc(C(C)(C)NC(=O)N(Cc2ccccc2)Cc2ccco2)c1	-4%
C[C@@H]1CN([C@H](C)CO)C(=O)c2cccc(NS(=O)(=O)c3ccccc3)c2O[C@H]1CN(C)C	-7%
O=C(NC1CCCCC1)C(c1ccncc1)N(C(=O)Cn1nnc(-c2cccs2)n1)C1CCCC1 (centres undefined)	-7%
CS(=O)(=O)c1ccc(NCCc2ccc(S(N)(=O)=O)cc2)c([N+](=O)[O-])c1	-10%
Cc1ccc(C)c(S(=O)(=O)Nc2ccc3oc(C)c(C(=O)O)c3c2)c1	3%
Cc1nc([N+](=O)[O-])c(Br)n1CC(=O)c1ccc(Br)cc1	?
Cc1ccc(NC(=O)CSc2nnc(-c3cnccn3)n2Cc2ccco2)cc1	1%
Oc1ccccc1Cn1nnc2ccccc21	-18%
CCOC(=O)c1c(NC(C)=O)sc2c(OC(C)=O)cccc12	-5%
O=C1OC(c2ccccc2)c2ccccc21 (centres undefined)	-13%
O=C(OCCCOc1ccc(F)cc1)c1ccc(O)cc1O	8%
CCCCOc1ccc(S(=O)(=O)Nc2cccc(-c3ccc(N4CCOCC4)nn3)c2)cc1	0%
O=C(NCCCCCCNC(=O)c1ccc(Br)s1)c1ccc(Br)s1	5%
Cc1cc2nc(C)c(=O)n(C)c2cc1C	?
O=C(CCCN1C(=O)c2cccc3cccc(c23)C1=O)NC1CCS(=O)(=O)C1 (centres undefined)	6%
COc1ccc(C(=O)Nc2nc3ccc(S(=O)(=O)N4CCCC4)cc3s2)cc1	7%
O=C(CCNC(=O)c1ccccc1)NC1CCCc2ccccc21 (centres undefined)	12%
COc1ccc(C2N(C(C)=O)CCN2S(=O)(=O)c2ccc(C)cc2)cc1 (centres undefined)	-2%
COc1ccccc1NC(=O)C1=C(C)N(c2ccccc2)C(=S)NC1c1cccc(C(F)(F)F)c1 (centres undefined)	16%
Cc1ccc(S(=O)(=O)N2CCC(NC(=O)c3cccnc3)CC2)cc1Cl	-4%
O=C1/C(=C/c2cccs2)CCC1C1CCCC1 (centres undefined)	2%
O=C(c1ccccc1)N1CCN(S(=O)(=O)c2cccc(NS(=O)(=O)c3ccccc3)c2)CC1	10%
Cc1csc(=O)n1CC(=O)OCc1cccc2ccccc12	-4%
CC(C)c1cc(CNC(=O)CC2C(=O)NCCN2CC2CCCCC2)on1 (centres undefined)	-1%
Cc1ccccc1NC(=O)CSc1nc2ccc(NC(=O)CCc3ccccc3)cc2s1	7%
COc1ccc(/C=N/NC(=O)c2ccc3nc[nH]c3c2)c(OC)c1	-26%

Reformatted: results already given
canonical_smiles,VDR inh
Oc1ccccc1Cn1nnc2ccccc21,-18%
CCOC(=O)c1c(NC(C)=O)sc2c(OC(C)=O)cccc12,-5%
O=C1OC(c2ccccc2)c2ccccc21 (centres undefined),-13%
O=C(OCCCOc1ccc(F)cc1)c1ccc(O)cc1O,8%
CCCCOc1ccc(S(=O)(=O)Nc2cccc(-c3ccc(N4CCOCC4)nn3)c2)cc1,0%
O=C(NCCCCCCNC(=O)c1ccc(Br)s1)c1ccc(Br)s1,5%
Cc1cc2nc(C)c(=O)n(C)c2cc1C,?
O=C(CCCN1C(=O)c2cccc3cccc(c23)C1=O)NC1CCS(=O)(=O)C1 (centres undefined),6%
COc1ccc(C(=O)Nc2nc3ccc(S(=O)(=O)N4CCCC4)cc3s2)cc1,7%
O=C(CCNC(=O)c1ccccc1)NC1CCCc2ccccc21 (centres undefined),12%
COc1ccc(C2N(C(C)=O)CCN2S(=O)(=O)c2ccc(C)cc2)cc1 (centres undefined),-2%
COc1ccccc1NC(=O)C1=C(C)N(c2ccccc2)C(=S)NC1c1cccc(C(F)(F)F)c1 (centres undefined),16%
Cc1ccc(S(=O)(=O)N2CCC(NC(=O)c3cccnc3)CC2)cc1Cl,-4%
O=C1/C(=C/c2cccs2)CCC1C1CCCC1 (centres undefined),2%
O=C(c1ccccc1)N1CCN(S(=O)(=O)c2cccc(NS(=O)(=O)c3ccccc3)c2)CC1,10%
Cc1csc(=O)n1CC(=O)OCc1cccc2ccccc12,-4%
CC(C)c1cc(CNC(=O)CC2C(=O)NCCN2CC2CCCCC2)on1 (centres undefined),-1%

Next section.
SMILES	VDR inh
O=C(NCC1COc2ccccc2O1)c1ccc(Cl)c(S(=O)(=O)N2CCCC2)c1 (centres undefined)	5%
COc1ccc(/C=N/NC(=O)C(=O)N2CCCCCC2)cc1	0%
Cc1ccc(CC(=O)OCCNC(=O)c2cccnc2)cc1	0%
CC1(C)CC2CC(C)(CN2S(=O)(=O)c2cccc(C(N)=O)c2)C1 (centres undefined)	3%
CCC(C)(C)C1CCc2c(sc(NC(=O)c3ccoc3C)c2C(N)=O)C1 (centres undefined)	6%
CCOC(=O)CNS(=O)(=O)c1ccc(C(=O)O)cc1	-4%
COc1cc(NC(=O)N[C@H](C(=O)O)C(C)C)cc(OC)c1	-3%
COc1ccc(C(=O)O/N=C(\N)c2ccccn2)cc1[N+](=O)[O-]	15%
CCOC(=O)C(=O)Nc1ccccc1C(N)=O	25%
COc1ccc(C)cc1NC(=O)N1CCN(c2cc(-c3noc(C)n3)ccc2C)CC1	-12%
Cc1ccccc1-c1cc(NCc2ccccc2)ncn1	?
Cc1cccnc1NC(=O)c1cccc(S(=O)(=O)N2CCCc3ccccc32)c1	3%
S=C(NNc1nc(Nc2ccccc2)nc(N2CCCCC2)n1)NC1CCCCC1	-12%
COc1ccccc1CNC(=O)CC(C)C	?
CSc1ncccc1C(=O)OCC(=O)N1CCOCC1	-9%
COc1ccc(CC(=O)Nc2ccc(C(=O)O)cc2NC(=O)Cc2ccc(OC)cc2)cc1	-6%
CC(C)N(C(=O)CSc1nnc(NC2CC2)s1)c1ccccc1	-8%
COc1ccccc1CNC(=O)CSc1nc(=O)n(Cc2ccncc2)c2c1CCC2	2%
CC1(C)CC(=O)C2=C(C1)Nc1ccccc1NC2c1ccc(F)c(F)c1 (centres undefined)	-25%
CCCOc1ccc(N2CC(C(=O)Nc3ncccc3C)CC2=O)cc1 (centres undefined)	5%
COc1ccc(-c2nc3sc(CCNC(=O)C(C)(C)C)c(C)n3n2)cc1	2%
COC(=O)c1cccc(C(=O)Oc2cccc(Br)c2)n1	3%
CC1(C)CC(=O)c2cnc(N3CCc4ccccc43)nc2C1	-2%
CCCOc1ccc(NC(=O)CC2C(=O)N(c3ccccc3)C(=O)N2Cc2ccco2)cc1 (centres undefined)	11%
COc1ccccc1Cn1cnc2cccnc21	-14%
O=C(O)C(Oc1ccc2ccccc2c1)c1ccccc1 (centres undefined)	8%
C=N[C@H](C(=O)N[C@@H]1C(=O)N2[C@@H]1SC(C)(C)[C@@H]2C(=O)O)c1ccccc1	13%
Cc1ccc(S(=O)(=O)N2CCN(S(C)(=O)=O)CC2)cc1	2%
COc1ccc(CCNC(=O)Cn2c(=O)n(CC3CCCO3)c(=O)c3cc(OC)c(OC)cc32)cc1OC (centres undefined)	-1%
Cn1cc(C(=O)O)c(=O)c2cc(S(=O)(=O)N3CCOCC3)ccc21	0%
COc1cc(/C=N/NC(=O)c2ccc(CSc3nncn3C)cc2)ccc1OCC(=O)N1CC(C)OC(C)C1 (centres undefined)	-2%
CC(C(=O)NC1C=CS(=O)(=O)C1)N1C(=O)/C(=C/c2ccc(Cl)cc2)SC1=S (centres undefined)	?
CCN1C(=O)c2cccc3c(NC(=O)c4ccc5c(c4)OCCO5)ccc1c23	-3%
Cc1ccc(S(N)(=O)=O)cc1NC(=O)c1c(-c2c(Cl)cccc2Cl)noc1C	-6%
Cc1csc(N2CCCC2c2nc3cc(Cl)c(N4CCCCC4)cc3n2CCOCCO)n1 (centres undefined)	-35%
O=C(N/N=C/c1cccc(O)c1)c1ccc2c(c1)OCCO2	2%
Cc1ccc(C)n1-c1nnc(N2CCC(C(=O)NCCCN3CC(C)CC(C)C3)CC2)s1 (centres undefined)	-8%
Cc1ccccc1CNC(=O)C1CCN(S(=O)(=O)Cc2ccccc2)CC1	9%
CC(C)(C)c1ccc(C(=O)NC(=O)COC(=O)CCS(=O)(=O)c2ccccc2)cc1	-21%
Cc1ccc(C(=O)NCCc2nnc3ccc(SCC(=O)Nc4ccc(C)cc4C)nn23)cc1	-11%
O=C(CCCSc1nc2ccccc2s1)NCc1ccc2c(c1)OCO2	-4%
Cc1ccc(NC(=O)C2CCCN(S(=O)(=O)c3c(C)noc3C)C2)cc1F (centres undefined)	-11%
CC(C)(C)c1cc(OC(=O)c2ccncc2)ccc1O	-9%
O=C(Nc1ccccc1C(F)(F)F)c1ccccn1	-2%
Cc1ccc(N2CC(C(=O)NCCS(=O)(=O)N3CCN(c4ccccc4)CC3)CC2=O)cc1 (centres undefined)	-10%&11%
CCSc1nc(N2CCCCC2)c2c(c1C#N)CCCC2	15%
O=C(c1ccccc1)N(CCO)Cc1cc2cc3c(cc2[nH]c1=O)OCCO3	-2%
CC1CCCC(NC(=O)CN2CCN(Cc3ccc(Cl)cc3)C2=O)C1C (centres undefined)	11%
O=C(/C(=C/c1ccccc1Cl)c1ccccc1)N1CCOCC1	-5%
Cc1coc2c1c(C)cc1oc(=O)c(CC(=O)NCCc3ccc(Cl)cc3)c(C)c12	15%
CCOC(=O)c1cc2cc([N+](=O)[O-])cc(OC)c2oc1=O	-4%
CCOc1ccc(S(=O)(=O)N(C)c2ccc(OCC(=O)Nc3nc4ccccc4s3)cc2)cc1	2%
CC(=O)Nc1ccc(NC(=O)Nc2cc(C)cc(C)c2)cc1	10%
CCOC(=O)N1CCC(NC(=O)c2ccc3c(c2)N(Cc2ccc(F)cc2)CCS3)CC1	-19%
CC(=O)c1ccc(OC(=O)N(c2ccccc2)c2ccccc2)cc1	-8%
O=C(CSc1n[nH]c(-c2ccc(F)cc2)n1)NCc1ccccc1Cl	14%
CCCCCN=c1ccn(Cc2ccccc2)c2ccccc12	-3%
CCn1c(SCC(=O)N2CCCc3ccccc32)nc2cccnc21	8%
Cc1ccc(NC(=O)Cn2c(=O)n(CCc3ccccc3)c(=O)c3sc4ccccc4c32)cc1C	-3%
Cc1sc2ncnc(NCC3(N4CCOCC4)CCCCC3)c2c1C	-2%

Exported with bars between the fields: part of the list above.
Compound | VDR inh
O=C(NCC1COc2ccccc2O1)c1ccc(Cl)c(S(=O)(=O)N2CCCC2)c1 (centres undefined) | 5%
COc1ccc(/C=N/NC(=O)C(=O)N2CCCCCC2)cc1 | 0%

New compounds follow.
SMILES	VDR inh
CCCc1nnc(NC(=O)CCC(=O)Nc2ccc(F)cc2)s1	6%
O=C(COC(=O)c1ccc(F)cc1F)Nc1cc(S(=O)(=O)N2CCOCC2)ccc1Cl	16%
CN(C1CCCCC1)S(=O)(=O)c1ccc2c(c1)c(=O)c(C(=O)NCc1ccc(Cl)cc1)cn2C	-2%
CCCN(c1ccccc1F)S(=O)(=O)c1c[nH]c(C(=O)OC)c1	-7%
COCCSc1nnc(-c2cnccn2)o1	-8%

These rows are one share of the data; count on the stated rates, not on these rows.
